From PubChem BioAssay
TAR Tat displ – HIV-1 TAR-Tat binding disruption. HIV-1 TAR RNA, Tat peptide displacement FRET; active compounds read high. z-score (concentration not given with the values). 0.6% of 100,000 active. AID 1259389;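 note: score is relative to mean and SD of negative controls; some compounds called inactive have numbers as strong as hits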
CDC25B-CDK2 inh – human CDC25B-CDK2/CyclinA binding inhibition. P30305+P24941. HTRF CDC25B-CDK2/CyclinA binding, anti-His/anti-Flag; active compounds read high. z-score (concentration not given with the values). 0.72% of 94,000 active;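 note: score is relative to mean and SD of negative controls; strong numbers were not always called active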
* marks the source's active call; other numbers are inactive results; x = not tested or not shown.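 Rule for the calls: active = z-score from 3 up in half or more of its runs; inactive = the rest.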

Values run as follows: TAR Tat displ, CDC25B-CDK2 inh
#1 COc1ccccc1N1CCN(CCCCNC(=O)c2ccc(Cl)cc2)CC1
    x, -1.4
#2 COc1cc(NC(c2ccccc2)c2c(C)nc3c(C)cccn23)cc(OC)c1 (stereo not drawn)
    0.35, -1.1
#3 Cc1nn(C)c2ncc(C(=O)O)c(SC(C)C)c12
    x, -1.4
#4 O=c1c(NCc2ccc(F)cc2)nccn1-c1ccc(F)c(F)c1
    -2.9, x
#5 COc1ccc(Cc2nc(S(=O)(=O)c3ccccc3)c(NCc3ccccc3)o2)cc1
    -0.18, 1.5
#6 Cc1cccc(CN(C)CCc2ccccn2)c1
    0.24, -1.1
#7 CCCSCCCNC(=O)Cn1nc(CC)n2c(cc3occc32)c1=O
    2.4, 1.3
#8 O=C1c2ccccc2C2(c3ccccc3)NCCN12 (stereo not drawn)
    x, -0.7
#9 CC(C)c1cc(C(=O)Nc2cccc(Br)c2)nn1C1CCS(=O)(=O)C1 (stereo not drawn)
    0.11, 0.31
#10 CCN(CC)CCNC(=O)C1(c2cccs2)CCOCC1
    0.23, x
#11 CC1CC(C)CN(C(=O)CSc2nc3c(c(=O)[nH]2)CCC3)C1 (stereo not drawn)
    x, -1
#12 CC1Sc2ccc(S(=O)(=O)N3CCN(C4CCCC4)CC3)cc2NC1=O (stereo not drawn)
    0.89, x
#13 COCCCNc1nc(N)c([N+](=O)[O-])c(Nc2ccc(C)c(C)c2)n1
    0.2, x
#14 CCCNS(=O)(=O)c1ccc2c(c1)n(C)c(=O)c(=O)n2C
    0.05, -1.1
#15 Cc1cccc(Oc2c(C(F)(F)F)oc3c(CN4CCCC4)c(O)ccc3c2=O)c1
    3, -1.6
#16 CCCc1cc(=O)[nH]c(-n2nc(C)cc2NC(=O)C2c3ccccc3Oc3ccccc32)n1
    0.12, x
#17 CC(C)(C)S(=O)(=O)/C(C#N)=C/Nc1ccc(Cl)cn1
    x, -0.39
#18 CCC12CN3CC(C)(CN(C1)C3c1ccc(Cl)cc1)C2=O (stereo not drawn)
    1.9, -1.7
#19 CCSc1ncc(Cl)c(C(=O)Oc2ccc(Cl)cc2)n1
    1.5, 0.55
#20 O=C(CN1C(=O)c2ccccc2S1(=O)=O)N1CCOCC1
    1.5, 0.42
#21 Cc1ccsc1-c1nc(CSCC(=O)N2CCN(c3ccccc3F)CC2)c(C)o1
    x, -0.58
#22 Cc1cccc(-n2ncc3c(N4CCN(c5ccccn5)CC4)ncnc32)c1
    x, -0.71
#23 CCc1nn(C(CC)C(=O)NCCOC)c(=O)c2cc3oc(C)cc3n12 (stereo not drawn)
    2.2, -0.14
#24 CCCn1nc(-n2cnnc2)c(NS(=O)(=O)c2cc(Cl)ccc2OC)c1C
    0.64, -3.1
#25 Cc1cc2n(n1)CCC(=O)N2CC(=O)NC1CCCCC1
    -0.14, x
#26 Cc1nn(-c2ccccc2)nc1C(=O)Nc1ccc2[nH]ccc2c1
    x, 0.2
#27 COc1ccc(NS(=O)(=O)c2cn(C)cn2)cc1Cl
    1.8, x
#28 C=CCN1C=C(OC(=O)c2ccc(Br)cc2)c2ccccc2S1(=O)=O
    0.45, -0.76
#29 c1ccc(N2CCN(c3nnc(-n4cccc4CN4CCN(c5ccccn5)CC4)s3)CC2)cc1
    0.58, x
#30 O=C(NCCCn1ccnc1)c1cc2n(n1)C(C(F)(F)F)CC(c1ccc(Cl)cc1)N2 (stereo not drawn)
    2, -1.7
#31 Cn1nnnc1SCCNCc1cccc(OCc2ccccc2)c1
    0.71, 0.54
#32 Cc1ccc2oc3c(c(=O)c2c1)C(c1cccnc1)N(CCCN1CCOCC1)C3=O (stereo not drawn)
    1.7, x
#33 O=C(c1ccncc1)N(c1ccc2oc3c(c2c1)CCCC3)S(=O)(=O)c1cccs1
    x, -0.23
#34 COc1ccc(OC)c(NC(=O)c2noc3c2CCc2sccc2-3)c1
    0.07, x
#35 Cc1cc2c(cc3c(=O)n(CC(=O)NCCN4CCOCC4)ncn32)s1
    -1.1, 0.65
#36 Cc1ccc(CNS(=O)(=O)c2ccc(CN3C(=O)c4cccnc4C3=O)cc2)o1
    1.3, x
#37 CCOc1ccc(OCC)c(S(=O)(=O)N2CCN(c3cc(N(C)C)nc(C)n3)CC2)c1
    1.7, 1.4
#38 Cc1c(C(=O)N2CCN(c3ccccn3)CC2)sc2nc3n(c(=O)c12)CCCCC3
    1.5, x
#39 CCN(CCCNC(=O)C1CCC(=O)N1C(C)C)c1cccc(C)c1 (stereo not drawn)
    x, -2
#40 CCCN(CCC)C(=O)CN1Cc2ccccc2C1=O
    -1, x
#41 COC(=O)c1cc(C)c2c(=O)n(C)c(=O)n(C)c2n1
    2.6, -1.3
#42 CCCCN(CC)CCNC(=O)c1nn(C)c2c1CS(=O)(=O)c1ccccc1-2
    0.79, 0.55
#43 Cc1ccccc1-c1nc(NC(=O)CSc2nnc3ccccn23)ns1
    0.79, 0.5
#44 NC(=O)c1nc(-c2cccnc2)nc2c1[nH]c(=O)n2-c1ccccc1
    x, -2.8
#45 Cc1cc(=O)[nH]c2ccc(NS(=O)(=O)c3ccc(Cl)cc3)cc12
    1.9, x
#46 Cc1noc(/C=C/c2nn(C)cc2Cl)c1[N+](=O)[O-]
    x, -2.5
#47 CN(C)S(=O)(=O)c1ccc(N2CCC(C(=O)O)CC2)cc1
    -0.25, -1.8
#48 Cn1nc(C(=O)NCCN2CCOCC2)c2c1-c1ccccc1SC2
    1.8, -1.5
#49 Cc1nc(N2CCN(C(=O)c3ccco3)CC2)nc2c1C(=O)CCC2
    0.77, -0.3
#50 CCC(C)NC(=O)Cn1c(=O)n(CC2CCC(C(=O)NC(C)C)CC2)c(=O)c2sccc21 (stereo not drawn)
    -1.5, x
#51 O=C(Nc1ccc(F)cc1)N1Cc2cccn2-c2ccccc21
    1.3, x
#52 CCC(C(=O)N1CCc2ccccc2C1)n1nc(C)n2c(cc3occc32)c1=O (stereo not drawn)
    0.53, 0.75
#53 CCOC(=O)C1=C(C)N=C2SC(CC)C(=O)N2C1c1ccc(OC)c(OC)c1 (stereo not drawn)
    -0.58, -1.4
#54 O=C(O)c1ccc2nc(-c3cccc(-c4nc5ccc(C(=O)O)cc5[nH]4)c3)[nH]c2c1
    x, 7.3*
#55 Nc1nc(CSc2nnnn2-c2ccccc2)nc(Nc2ccccc2)n1
    0.48, 1.2
#56 CCOC(=O)CSc1nc2nc(C)c([N+](=O)[O-])c(=O)n2[nH]1
    3.6, 0.3
#57 O=C(CCCc1nnc2c(=O)n(-c3cccc(F)c3)ccn12)N1CCN(c2ccccn2)CC1
    0.91, x
#58 COc1ccc(C2CC(=O)C3=C(C2)Nc2ccccc2NC3c2cccc(O)c2)cc1OC (stereo not drawn)
    0.25, -0.72
#59 COc1cc(C2Nc3ccccc3NC3=C2C(=O)CC(c2ccc4c(c2)OCO4)C3)ccc1OC(C)=O (stereo not drawn)
    1.4, -0.91
#60 CCCc1nn2c(=O)cc(COC(=O)Cc3ccccc3)nc2s1
    1.8, x

No new results follow: an excerpt of the list.
Values run as follows: TAR Tat displ, CDC25B-CDK2 inh
#53 CCOC(=O)C1=C(C)N=C2SC(CC)C(=O)N2C1c1ccc(OC)c(OC)c1 (stereo not drawn)
    -0.58, -1.4
#54 O=C(O)c1ccc2nc(-c3cccc(-c4nc5ccc(C(=O)O)cc5[nH]4)c3)[nH]c2c1
    x, 7.3*
#55 Nc1nc(CSc2nnnn2-c2ccccc2)nc(Nc2ccccc2)n1
    0.48, 1.2
#56 CCOC(=O)CSc1nc2nc(C)c([N+](=O)[O-])c(=O)n2[nH]1
    3.6, 0.3
#57 O=C(CCCc1nnc2c(=O)n(-c3cccc(F)c3)ccn12)N1CCN(c2ccccn2)CC1
    0.91, x
#58 COc1ccc(C2CC(=O)C3=C(C2)Nc2ccccc2NC3c2cccc(O)c2)cc1OC (stereo not drawn)
    0.25, -0.72

Reformatted field by field: entries from further up
51) O=C(Nc1ccc(F)cc1)N1Cc2cccn2-c2ccccc21
  TAR Tat displ: 1.3; CDC25B-CDK2 inh: x
52) CCC(C(=O)N1CCc2ccccc2C1)n1nc(C)n2c(cc3occc32)c1=O (stereo not drawn)
  TAR Tat displ: 0.53; CDC25B-CDK2 inh: 0.75
53) CCOC(=O)C1=C(C)N=C2SC(CC)C(=O)N2C1c1ccc(OC)c(OC)c1 (stereo not drawn)
  TAR Tat displ: -0.58; CDC25B-CDK2 inh: -1.4

Next part.
Values run as follows: TAR Tat displ, CDC25B-CDK2 inh
#61 CCCCOc1ccc(C2c3c(oc4ccccc4c3=O)C(=O)N2c2ccccn2)cc1OCC (stereo not drawn)
    1.9, -1.5
#62 Cc1ccc2oc(=O)c3cnn(CC(=O)N(CCCN4CCOCC4)Cc4ccco4)c3c2c1
    x, -0.27
#63 Cc1ccc(C(=O)CC2(O)C(=O)N(CCc3ccccc3)c3ccc(Br)cc32)s1 (stereo not drawn)
    -0.37, 1.6
#64 O=S(=O)(NCCc1csc2nc(-c3ccccc3)nn12)c1ccc(Cl)cc1
    1.6, x
#65 O=C(CSCc1c(F)cccc1Cl)c1ccc2c(c1)OCCO2
    x, 0.31
#66 COc1ccc(NS(=O)(=O)c2ccc(CN3C(=O)c4cccnc4C3=O)s2)cc1
    1.5, x
#67 Cc1ccc(C2C(=O)N(C3CCCCC3)CC(=O)N2CCc2ccccc2)cc1 (stereo not drawn)
    x, -1.8
#68 O=C(Nc1ncc(Cc2ccc(Br)cc2)s1)C1=Cc2ccccc2OC=C1
    -0.66, -2
#69 CCOC(=O)c1noc(-c2cccc([N+](=O)[O-])c2)c1C#N
    x, 0
#70 O=S1(=O)CCC(S(=O)(=O)NC2CCCCC2)C1 (stereo not drawn)
    0.61, -0.32
#71 COc1ccc(C2CC(=O)C3=C(C2)NC(=O)CC3c2cccc(OC)c2OC)cc1OC (stereo not drawn)
    -0.32, -0.95
#72 CCOC(=O)c1c(C)c(C(=O)NC2CCCCCC2)c(C)n1CC
    x, -0.68
#73 CN1C(=O)c2ccccc2C(C(=O)NCc2ccco2)C1c1c[nH]c2ccccc12 (stereo not drawn)
    x, -1.7
#74 CCCCCc1c(O)nc(SCC(=O)O)[nH]c1=O
    -0.44, 0.1
#75 CCC(C)(C)Nc1c(-c2ccc(C(C)C)cc2)c(=O)c1=O
    3.4, x
#76 Cc1ccc(CSc2n[nH]c(=O)[nH]c2=O)cc1
    1.7, -1.5
#77 O=C1CN(Cc2cccc(F)c2)S(=O)(=O)c2ccccc2N1Cc1ccccc1F
    1.4, x
#78 O=C(CCCn1ccc2cc(S(=O)(=O)N3CCCC3)ccc21)NC1CCCc2ccccc21 (stereo not drawn)
    0.3, x
#79 COCCn1c(SCC(=O)NCc2ccco2)nc2c(c1=O)SC(C)C2 (stereo not drawn)
    x, -1.9
#80 O=C1c2[nH]nc(-c3ccccc3O)c2C(c2cccc(Oc3ccccc3)c2)N1CCCO (stereo not drawn)
    1.6, -0.7
#81 CC(C)c1nc2n(n1)C1(CCCCC1)[C@@H]1CCCC[C@@H]1N2C(=O)c1ccco1
    2.5, -1.4
#82 Cc1ncc(CO)c2cc(C(=O)Nc3cc(F)ccc3F)c(=O)oc12
    2.9, x
#83 CCOCCOc1nc2c(c(=O)n(C)c(=O)n2C)n1Cc1ccc(C)cc1
    -0.17, 0.15
#84 O=C(Cn1ncc2c(=O)oc3ccccc3c21)N1CCc2ccccc2C1
    x, -0.55
#85 O=C1Nc2ccccc2C1Cc1ccc(Br)cc1 (stereo not drawn)
    0.2, -0.77
#86 COc1cc(C(=O)Nc2ccccc2SCCC#N)cc(OC)c1OC
    x, 0.31
#87 Cc1cc(C)c2c(cnn2CC(=O)NC(C)C)c1
    0.87, -1.9
#88 O=C(NCc1cccs1)c1ccc(N2CCOc3ccc(Cl)cc32)s1
    0.61, x
#89 NC(=O)C1CCN(C(=O)COCc2cc(-c3ccco3)on2)CC1
    0.34, x
#90 COc1cccc2c1OC1=C(C2)C(=O)CC(C)(C)C1
    x, -2.6
#91 CCc1nc(SCC(=O)Nc2cc(C)on2)c2c(=O)n(C)c(=O)n(C)c2n1
    0.93, x
#92 Cc1cccn2c(=O)cc(CSCC(=O)Nc3nnc(C(C)C)s3)nc12
    0.55, x
#93 Cc1ccc(C)n1-c1c(C(=O)O)sc2ncccc12
    0.26, -0.21
#94 CCOc1ccc(Br)cc1C1=NN(C(C)=O)C(c2ccc([N+](=O)[O-])s2)O1 (stereo not drawn)
    -0.53, x
#95 Cc1[nH]nc(-n2cnnc2)c1NC(=O)c1ccc(C(C)(C)C)cc1
    1.7, -0.62
#96 COc1cc(NS(=O)(=O)c2cc3c(cc2C)N(C)CCO3)cc(OC)c1
    2.5, x
#97 CCN(CC)CCCNC(=O)C1CCCN(c2nnc(-n3cccc3)s2)C1 (stereo not drawn)
    -2.3, -0.47
#98 COC(=O)C1=C(OC(=O)c2ccc(Br)cc2)c2ccccc2S(=O)(=O)N1C(C)C
    -0.74, -0.65
#99 C=CCOC(=O)c1sc(N2C(=O)c3oc4ccc(C)cc4c(=O)c3C2c2ccc(F)cc2)nc1C (stereo not drawn)
    -0.36, -0.27
#100 CCCCn1c(C2CC(=O)N(c3ccc(F)cc3)C2)nc2ccccc21 (stereo not drawn)
    0.67, -2.1
#101 CN(C)c1ccc2nsnc2c1[N+](=O)[O-]
    x, -3.1
#102 O=C(O)c1ccc2c(c1)N(Cc1ccc(F)cc1)C(=O)c1ccccc1S2(=O)=O
    x, -0.95
#103 Cc1ccc(-c2nc(-c3ccncc3)n[nH]2)c([N+](=O)[O-])c1
    x, -0.81
#104 CCCCOC(=O)Nc1ccc(S(=O)(=O)Nc2nccs2)cc1
    -0.04, 1.5
#105 CC1(C)CC(=O)c2c(C(=O)O)coc2C1
    x, -2
#106 O=C1c2ccccc2-c2n[nH]c(=O)c3ccc(N4CCOCC4)c1c23
    1.2, -2.4
#107 O=C(CN1c2ccc(Br)cc2-c2ccccc2S1(=O)=O)NCCCn1ccnc1
    1.4, -1.8
#108 CC1CN(C2CCCCC2)c2nc3c(c(=O)n(CC(=O)O)c(=O)n3C)n2C1 (stereo not drawn)
    0.32, 1.6
#109 CCCC1NC(=O)NC(C)=C1C(=O)OCC (stereo not drawn)
    x, 0.22
